A1 inh = caspase 3/7 activation in MEF A1-2A-BIM cells, primary screen, A1 inhibitor project, cell-based, luminescence, HTS; Caspase-Glo 3/7 luminescence, 3 h; percent of clofoctol response, vehicle zero; caspase activation, % (concentration not given with the values); 330,000 compounds, 0.066% hits; AID 2462, 2010;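 active means over half of replicate activation scores above 10%, or exactly half above 10 with the replicate mean above 10; inconclusive means replicate mean below 10 yet half the replicates above 10; inactive means over half of replicates below 10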;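 further: wells of about 30 µL received 50 nL stock; many hits fall short of the cut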
FGF22 binding = binders of human FGF22 protein, primary screen, FGF22 synaptogenesis inhibitor project, biophysical, thermal shift, single point; recombinant FGF22 thermal shift, SYPRO orange fluorescence; percent of sucrose octasulfate shift, DMSO zero; calls only at 9.99 µM; 340,000 compounds, 1.5% hits;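 active means melting point raised past a set limit in the mean and every replicate; inconclusive means no clear call; three in four hits are not shown here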
Target sequence (Q9HCT0 whole entry, looked up): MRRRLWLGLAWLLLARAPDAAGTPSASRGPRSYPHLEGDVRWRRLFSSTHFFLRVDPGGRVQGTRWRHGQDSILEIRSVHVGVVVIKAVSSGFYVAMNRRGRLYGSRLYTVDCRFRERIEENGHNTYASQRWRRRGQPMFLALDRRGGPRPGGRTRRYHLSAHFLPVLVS
AF4-AF9 inh = inhibitors of AF4 peptide binding to AF9, primary screen, biochemical, AlphaScreen, biotin-AF4 peptide, FLAG-AF9, single point; Protein AF-9 (Homo sapiens), P42568; inhibition, % at 10 µM; 350,000 compounds, 0.47% hits; AID 651704, 2012;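 active means every replicate reaching a set inhibition limit, whatever the replicate mean, cut at about 25% in these data; inconclusive means mean inhibition reaches that limit but some replicates miss it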;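 further: 0% = plate neutral control median and 100% = total signal loss; the record names both 10 and 1 µM as test concentration; the first replicate is given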
Target sequence (P42568 whole entry, looked up): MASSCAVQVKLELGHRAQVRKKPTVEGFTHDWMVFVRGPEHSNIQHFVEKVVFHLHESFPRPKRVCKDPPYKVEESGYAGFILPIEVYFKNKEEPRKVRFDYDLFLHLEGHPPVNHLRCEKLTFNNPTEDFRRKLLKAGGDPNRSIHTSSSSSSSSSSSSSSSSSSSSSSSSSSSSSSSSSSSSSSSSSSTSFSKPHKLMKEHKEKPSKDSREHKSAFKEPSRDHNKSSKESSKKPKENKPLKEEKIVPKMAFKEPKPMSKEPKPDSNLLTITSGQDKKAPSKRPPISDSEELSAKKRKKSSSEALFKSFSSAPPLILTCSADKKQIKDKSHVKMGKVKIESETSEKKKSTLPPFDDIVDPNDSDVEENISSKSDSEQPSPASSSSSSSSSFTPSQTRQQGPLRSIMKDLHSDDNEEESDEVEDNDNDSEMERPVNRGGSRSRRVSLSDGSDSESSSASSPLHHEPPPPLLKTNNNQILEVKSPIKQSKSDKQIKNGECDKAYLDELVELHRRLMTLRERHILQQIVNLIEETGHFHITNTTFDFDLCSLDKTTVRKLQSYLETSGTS
UCH37 inh = inhibitors of human UCH37 deubiquitinase, primary screen, biochemical, Ub-AMC cleavage, fluorescence; purified proteasome/UCH37; inhibition, % (concentration not given with the values); 330,000 compounds, 0.33% hits;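 active means mean of two replicates above 20%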;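 further: 0% = compound-free wells with enzyme and 100% = wells lacking proteasome; stock transfer was 100 nL into about 20 µL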
Target sequence (Q9Y5K5 whole entry, looked up): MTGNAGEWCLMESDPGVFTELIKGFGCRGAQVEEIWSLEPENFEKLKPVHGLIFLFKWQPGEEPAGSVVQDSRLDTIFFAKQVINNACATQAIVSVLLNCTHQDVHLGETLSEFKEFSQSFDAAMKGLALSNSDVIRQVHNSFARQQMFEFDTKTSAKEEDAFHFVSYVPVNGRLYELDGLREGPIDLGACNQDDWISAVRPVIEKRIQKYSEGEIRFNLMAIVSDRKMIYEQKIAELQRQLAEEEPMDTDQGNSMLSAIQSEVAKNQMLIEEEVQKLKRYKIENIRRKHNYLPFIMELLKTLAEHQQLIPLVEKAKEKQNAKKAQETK
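Material: Human UCH37 enzyme supplied as purified proteasome complex | Schedule: 30 min compound-proteasome preincubation then 25 min substrate reaction, room temperature | Detection: AMC fluorescence from Ub-AMC cleavage, excitation 355 nm, emission 460 nm | Benchmarks: Wells without proteasome as full block, compound-free enzyme plus substrate as uninhibited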
T cruzi inh = inhibitors of intracellular T. cruzi growth, primary screen, luminescence, NIH3T3 host cells; T. cruzi beta-gal in NIH3T3, 90 h; inhibition, % (no concentration beside the values); 300,000 compounds, 1.4% hits; AID 1885, 2009;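 active means mean inhibition across valid replicates above about 55%, limit read from the data; inconclusive means mean below that limit but half or more replicates reach it; inactive means mean below it, under half of replicates reach it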;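 further: signal also drops with host cell toxicity which is not excluded here; 0% = plate median of DMSO wells and 100% = zero luminescence signal; higher percent means less beta-gal luminescence so fewer parasites; stock transfer was 50 nL into about 50 µL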
rRNA inh HTS = reduced GFP signal of wild-type E. coli, primary screen, bacterial rRNA inhibitor project, GFP/RFP fluorescence, OD600, single point; E. coli WT GFP vs humanized-ribosome RFP mutants, 24 h; stronger effect = lower value; DMSO median 0, no signal -100; GFP signal change (wild-type ribosome), % (test concentration not listed); 350,000 compounds, 1.6% hits; AID 720706, 2013;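 active means significant combined selectivity score with lowered wild-type GFP, culture density cut under 30%, mutant RFP and density less affected; inactive means any of these conditions unmet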; further: one replicate is shown; some compounds called inactive have numbers as strong as hits
Beta cell apopt = inhibitors of cytokine-induced beta cell apoptosis, primary screen, luminescence; INS-1E cytokine-induced death, ATP luminescence, 48 h; percent of positive-control rescue, neutral wells zero; protection from apoptosis, % (no concentration beside the values); 300,000 compounds, 0.8% hits;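 active means all replicates at 75% or more, or half of them and the mean; inconclusive means half reach 75% but not the mean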;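 further: 0% = cytokine-treated negative control wells and 100% = positive control rescue; higher means more ATP so stronger rescue from cytokine killing; wells of about 40 µL received 100 nL stock; the first replicate is given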
Ecoli growth = E. coli growth inhibition, primary screen, OD600. Escherichia coli growth, 23 h; stronger effect = lower value. OD600 absorbance (no concentration beside the values). 330,000 compounds, 0.21% hits. AID 1053175, 2014;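 active means OD600 absorbance below the run mean of sample wells minus 3.6 SD, in any replicate, cut at about 0.56 in these data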;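 further: stock transfer was 300 nL into about 60 µL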
rRNA inh HTS OD600 = also measured in rRNA inh HTS; calls as there; OD600 change, %; measured here: OD600 growth;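 optical density of the mix in the first replicate; 0 = DMSO median and -100 = no signal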
rRNA inh HTS RFP = further read-out of rRNA inh HTS, marked with its call; RFP signal change, %; measured here: RFP humanized mutant strains;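 first replicate; 0 = DMSO median and -100 = no signal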
Active calls of the source: *; i = inactive; ? = inconclusive; . = not tested or not shown; & = joins results of further samples. Not all compounds are listed (hit frequency here may not be typical).

structure,A1 inh,FGF22 binding,AF4-AF9 inh,UCH37 inh,T cruzi inh,rRNA inh HTS,rRNA inh HTS OD600,rRNA inh HTS RFP,Beta cell apopt,Ecoli growth
CCOC(=O)C1CCN(C(=O)c2cc(C)n(C(C)(C)C)n2)CC1,-0.5,i,0.0,1.5,3,2,8,-2.1,-6,0.62
CC(CN1CCCC1)OC(=O)C(c1ccccc1)c1ccccc1 (centres undefined),0.0,i,2.5,3.9,1,17,13,1.5,2,0.67
Cc1cc(C(=O)NNC(=S)NCc2ccco2)n(C)n1,0.1,.,.,2.4,-7,.,.,.,.,0.68
O=c1c(-c2ccccc2)n[nH]c2ccccc12,-5.6,.,.,0.0,-18,.,.,.,4,0.77
Cc1cc(C)c2cc(C)c3nnc(SCC(=O)NCc4ccc5c(c4)OCO5)n3c2c1,-0.1,.,.,2.9,8,5,8,-5.2,6,0.73
CC(C)c1ccc(/C=C/C(=O)n2nnc3ccccc32)cc1,0.7,.,.,2.1,-18,.,.,.,4,0.71
C=CCn1ccc(=O)nc1SC,.,i,-1.3,-0.5,.,16,20,1.6,.,0.66
CCOC(=O)Cc1nn(Cc2ccc(Cl)cc2)c(=O)c2ccccc12,0.3,i,-5.6,5.0,18,4,5,-2.0,10,0.68
COc1ccc(CC(NC(C)=O)C(=O)NC2CCN(c3nc(C)cc(C)c3C#N)CC2)cc1 (centres undefined),-0.2,i,-7.2,-81,3,6,-2,-5.4,-2,0.68
COC(=O)C1=C(O)/C(=C/c2ccc(OCC(=O)Nc3ccccc3)cc2)N=C1C,-0.3,i,-1.4,-25,-13,-1,7,-3.5,-3,0.72
CCC(Oc1ccccc1)C(=O)Nc1ccccn1 (centres undefined),0.6,.,.,2.0,-1,.,.,.,.,0.69
CC1CC(C)(C)N(C(=O)CN2CCN(C)CC2)c2ccccc21 (centres undefined),-0.2,i,0.3,2.1,-14,20,12,3.5,.,0.64
Cc1ccc(/C=N/NC(=S)Nc2cccc(S(=O)(=O)N(C)C)c2)o1,-0.2,i,7.6,.,27,6,7,10,5,.
CCc1cc(C(=O)N2CCCC(CCC(=O)N3CCN(c4ccccn4)CC3)C2)no1 (centres undefined),0.8,.,-10,2.9,9,0,-6,-5.3,0,0.66
Cc1ccc(/C=N/NC(=O)c2cccc(S(=O)(=O)Nc3ccccc3Cl)c2)s1,-0.1,i,-0.3,.,-5,-1,3,-9.0,5,.
CCc1ccc(C(=O)CSc2n[nH]c(-c3ccncc3)n2)cc1,0.6,i,4.9,1.0,-7,0,6,-3.2,1,0.67
O=C(Oc1ccccc1-c1nnco1)c1ccc(Cl)cc1,0.3,.,.,-4.7,-2,.,.,.,1,0.72
Cc1[nH]c2ccccc2c1SCC(=O)O,-0.6,.,.,5.3,-4,.,.,.,7,0.7
O=C(NCc1cc([N+](=O)[O-])ccc1O)c1cccc(NS(=O)(=O)c2ccccc2)c1,0.1,i,-1.8,8.3,-11,-2,-43,-4.9,-2,0.67
COc1ccc(CN2CCN(CCCc3ccccc3)C(CCO)C2)c(OC)c1 (centres undefined),1.2,i,5.1,0.2,1,4,2,2.4,.,0.64
CCCNC(=O)c1cc(Cl)c(NC(=O)C2=CSCCO2)cc1OC,0.1,i,1.0,5.9,14,-4,-10,-2.2,.,0.7
Fc1cccc(CCN2CCNC[C@H]2Cc2cccc3ccccc23)c1,0.0,i,6.9,4.8,-7,-6,5,12,2,.
CSc1ccccc1NC(=O)c1cc2ncc(Br)cn2n1,-0.4,i,-4.8,.,2,12,1,1.7,-6,.
CC(=O)Cn1c(N2CCC(Cc3ccccc3)CC2)nc2c1c(=O)[nH]c(=O)n2C,0.3,.,.,6.1,-1,.,.,.,1,0.73
O=C(NC1CCCN(Cc2ccc(Cl)cc2)C1)c1cccc(F)c1 (centres undefined),0.5,i,-0.6,2.1,46,6,-2,2.5,-1,0.69
Cc1cccnc1CCNCc1c(C(=O)N2C[C@@H](C)O[C@@H](C)C2)nc2ccc(Cl)cn12,0.1,i,0.7,-1.0,3,2,2,1.6,?,0.69
Cc1[nH]n(-c2ccccc2)c(=O)c1/C=C1\C=NN=C1c1ccccc1,0.5,i,-0.5,.,-20,7,5,1.2,-2,.
COc1ccc2cc(Br)ccc2c1CC(=O)NC1CC(C)(C)NC(C)(C)C1,-0.4,.,.,3.3,15,.,.,.,0,0.69
COc1ccc(NC(=O)CCCc2ccccc2)c(OC)c1,0.7,i,2.1,-0.1,9,-9,-36,-6.6,2,0.66
COc1ccccc1N1CCN(C(c2cccs2)C(C)NC(=O)C(=O)N2CCCCC2)CC1 (centres undefined),0.6,i,3.2,0.9,-5,-1,-19,3.9,2,0.66
COc1ccc(NC(=O)NCCCN2CCc3ccccc3C2)cc1,0.4,i,4.0,-1.9,-10,9,9,2.0,-2,0.7
CCOC(=O)C1CCN(C(=O)Nc2cccc(Cl)c2)CC1,0.3,.,.,3.3,-11,.,.,.,0,0.66
Cc1cc(C(=O)Nc2ccc(S(=O)(=O)N3CCCC3)cc2)no1,0.1,i,-0.6,3.0,-6,14,6,-1.5,-1,0.7
Nc1ccc(S(=O)(=O)NC2(C(F)(F)F)NC(=O)N(c3ccccc3F)C2=O)cc1 (centres undefined),0.7,i,-0.9,0.4,1,5,10,-2.7,-2,0.69
CCOc1ccc(NC(=O)COC(=O)c2ncc(Cl)c(Cl)c2Cl)cc1,0.0,.,.,2.2,-10,.,.,.,2,0.72
O=C(O)c1cccc(Nc2ncnc3ccc(Br)cc23)c1,0.0,i,-0.5,5.2,-7,11,1,0.2,-3,0.69
O=C(COC(=O)CC1CC2CCC1C2)NC(=O)NC1CCCC1 (centres undefined),-0.2,i,-1.6,4.5,-13,-6,39,6.8,-5,0.66
COc1ccc(C)cc1Nc1nc(-c2ccccc2O)nc2ccccc12,0.4,i,3.3,4.6,17,8,14,0.3,0,0.72
CC(C)(C)c1nnc(NC(=O)Nc2ccc(Cl)cc2)s1,-0.9,i,-5.4,0.6,13,14,12,0.2,8,0.67
O=C(NCCCn1ccnc1)c1cnn2c1NC(c1ccccc1)CC2C(F)(F)F (centres undefined),0.7,.,.,1.3,-6,.,.,.,-4,0.71
O=C(NCCc1ccccn1)c1nc(Cn2cc([N+](=O)[O-])cn2)no1,-0.2,i,-0.2,2.9,-9,1,8,-3.9,-5,0.7
COC(=O)C1=C(C)N(CC2CC2)C(=NCCN2CCOCC2)N[C@H]1c1ccccc1,-1.1,.,.,-0.2,11,.,.,.,-11,.
CCN(CC)C(=O)CN1C(=O)c2cccc3cccc1c23,-0.4,i,0.3,-32,17,6,5,0.0,.,0.64
O=C(NCc1ccccc1)c1ccc2ccccc2n1,0.2,i,-9.4,5.6,-2,-8,-10,1.1,-3,0.67
COc1ccc2c(c1OC)C(=O)OC2C1c2c(cc3c(c2OC)OCO3)CCN1C (centres undefined),-0.6&0.8&0.7,i,-2.9&0.3&-20,2.3&0.2&2.4,0&7,-6&5,-3&10,-0.2&-0.2,-7&-2&4,0.69&0.73&0.74
C#CCCC(=O)c1ccccc1/C=[N+](\[O-])c1ccccc1,-0.7,i,-2.0,-0.7,.,7,10,-3.4,-4,.
COc1ccc(C(=O)N2CCC(C(=O)c3ccc(F)cc3)CC2)cc1,0.3,.,.,3.6,1,.,.,.,-12,0.71
CC(C)(C)n1cnc2cc(NCc3cccs3)ccc21,-0.1,i,4.7,0.9,-1,5,7,3.0,2,0.67
CCOc1ccc(NC(=O)C(=O)NCCN2CCN(S(=O)(=O)c3ccccc3)CC2)cc1,0.4,i,?,2.1,-13,11,11,-3.5,1,0.63
CN(Cc1ccccc1)S(=O)(=O)c1ccc(Cl)c(C(=O)NCCCN2CCOCC2)c1,1.0,i,-1.6,0.2,17,4,2,0.6,-4,0.7
CC(=O)c1ccccc1NC(=O)COC(=O)c1cc[n+]([O-])cc1,0.2,i,1.0,.,.,4,-6,-1.2,-9,.
N#Cc1cccc(NC(=S)Nc2ccccc2)c1,0.2,.,.,1.9,15,.,.,.,3,0.66
CCCN(CC(=O)Nc1ccc(F)c(F)c1F)C(=O)c1ccc2c(c1)NC(=O)CS2,1.0,i,-3.9,0.6,.,.,.,.,3,0.65
CCN1CCN(C(=S)Nc2ccc(Cl)cc2)CC1,-0.6,.,.,1.3,2,.,.,.,-10,0.68
O=C(Nc1ccc(Cl)cc1)N[C@@H]1c2c(ccc3ccccc23)OC[C@@H]1CO,0.6,i,-1.2,3.6,42,-21,20,12,-1,0.72
O=C(O)CCNC1CCCCC1,-0.3,i,-5.9,-1.3,1,8,9,-3.5,-2,0.66

Filtered by structure: the entries above with a cyano group
structure,A1 inh,FGF22 binding,AF4-AF9 inh,UCH37 inh,T cruzi inh,rRNA inh HTS,rRNA inh HTS OD600,rRNA inh HTS RFP,Beta cell apopt,Ecoli growth
COc1ccc(CC(NC(C)=O)C(=O)NC2CCN(c3nc(C)cc(C)c3C#N)CC2)cc1 (centres undefined),-0.2,i,-7.2,-81,3,6,-2,-5.4,-2,0.68
N#Cc1cccc(NC(=S)Nc2ccccc2)c1,0.2,.,.,1.9,15,.,.,.,3,0.66

Following part
structure,A1 inh,FGF22 binding,AF4-AF9 inh,UCH37 inh,T cruzi inh,rRNA inh HTS,rRNA inh HTS OD600,rRNA inh HTS RFP,Beta cell apopt,Ecoli growth
CC(=O)c1ccc(S(=O)(=O)N2CCN(c3ccccc3F)CC2)cc1,0.0,i,0.8,1.7,12,-2,7,0.3,-6,0.7
C/C(=N\OCC(=O)NC(C)C)c1cccs1,0.4,i,-11,.,2,3,6,-4.6,-1,.
CCN(CC)S(=O)(=O)c1ccc(C(C)NC(=O)C2CCCN2C(=O)c2cccs2)cc1 (centres undefined),-0.6,i,0.0,1.1,.,9,6,2.5,-4,0.68
COCCCNC(=O)/C(C#N)=C/c1cc(C)[nH]c1C,-1.3,i,0.6,-0.5,-10,.,.,.,-4,0.7
COCCCNC(=O)/C(C#N)=C/c1c(N2CCN(C)CC2)nc2c(C)cccn2c1=O,-0.1,i,-1.1,-6.8,1,2,3,0.7,-2,0.64
COC(=O)N1CCN(c2ccc(C)cc2)C(C)C1 (centres undefined),2.6,i,-0.8,-2.5,-2,4,7,-3.3,-6,0.69
CCCn1c2c(c(O)c(C(=O)Nc3nccs3)c1=O)CCCC2,0.9,.,.,-0.3,-2,.,.,.,-3,0.78
